# FGF22 binding – FGF22 (human) thermal shift binding. Q9HCT0. recombinant FGF22 thermal shift, SYPRO orange fluorescence; percent of sucrose octasulfate shift, DMSO zero. calls only at 9.99 µM. 1.5% of 340,000 active. AID 651658;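 active = melting point raised past a set limit in the mean and every replicate; three in four hits are not shown here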
# Target sequence (Q9HCT0 whole entry, looked up): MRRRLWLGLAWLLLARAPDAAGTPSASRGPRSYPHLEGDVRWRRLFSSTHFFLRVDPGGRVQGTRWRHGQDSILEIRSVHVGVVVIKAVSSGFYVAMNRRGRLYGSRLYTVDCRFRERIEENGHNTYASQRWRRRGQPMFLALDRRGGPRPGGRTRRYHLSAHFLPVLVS
# MLL AF4-AF9 inh – MLL-AF4/AF9 protein interaction inhibition; AlphaScreen, biotin-AF4 peptide binding to FLAG-AF9; inhibition, % at 10 µM; 0.47% of 350,000 active;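 active = every replicate reaching a set inhibition limit, whatever the replicate mean, cut at about 25% in these data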;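 note: 0% = plate neutral control median and 100% = total signal loss; the record names both 10 and 1 µM as test concentration; the first replicate is given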
# Target sequence (P42568 whole entry, looked up): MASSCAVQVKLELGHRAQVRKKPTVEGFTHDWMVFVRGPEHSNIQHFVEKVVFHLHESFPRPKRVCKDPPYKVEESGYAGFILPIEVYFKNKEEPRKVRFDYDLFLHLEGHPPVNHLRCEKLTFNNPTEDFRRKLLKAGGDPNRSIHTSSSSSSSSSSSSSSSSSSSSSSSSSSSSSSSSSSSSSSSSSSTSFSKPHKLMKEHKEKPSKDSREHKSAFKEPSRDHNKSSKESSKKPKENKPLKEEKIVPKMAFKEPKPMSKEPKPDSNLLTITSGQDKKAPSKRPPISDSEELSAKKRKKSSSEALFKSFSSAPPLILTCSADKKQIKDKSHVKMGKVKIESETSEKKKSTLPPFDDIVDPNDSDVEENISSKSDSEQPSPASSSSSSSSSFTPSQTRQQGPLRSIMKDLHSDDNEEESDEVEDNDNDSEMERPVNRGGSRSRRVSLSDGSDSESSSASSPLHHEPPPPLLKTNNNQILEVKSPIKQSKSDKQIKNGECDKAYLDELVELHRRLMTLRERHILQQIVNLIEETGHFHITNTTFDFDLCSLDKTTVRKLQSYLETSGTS
# * marks the source's active call; other numbers are inactive results; i = inactive. Not all compounds are listed. The share of hits here may be higher or lower than overall.
FGF22 binding	MLL AF4-AF9 inh	smiles
i	-2.7	CCOC(=O)[C@]12CCC=C1N(Cc1ccc(Cl)cc1Cl)C(=O)[C@H](CC(=O)N1CCSCC1)C2
i	-1.3	CC1(C(=O)NS(=O)(=O)C2CC2)CCN(C(=O)c2ccc(F)cc2Cl)C1 (configuration not stated)
i	-1.5	O=C(Nc1ccc(Cl)cc1)N[C@@H]1CC[C@H](CCn2cc(-c3ccccc3F)nn2)O[C@H]1CO
i	2.4	CO[C@@H]1CN(C)C(=O)c2ccc(NC(=O)C3CCC3)cc2OC[C@@H](C)N(C(=O)Nc2ccc(C(F)(F)F)cc2)C[C@H]1C
i	0.7	CCS(=O)(=O)N[C@H]1C=C[C@@H](CC(=O)Nc2ccc(-c3ccccc3)cc2)O[C@H]1CO
i	-0.1	COCCOC(=O)N1C(=O)[C@@]2(c3cc(C#Cc4ccc(OC)cc4)ccc31)[C@H](c1ccccc1OCCO)N1[C@H](c3ccccc3)[C@H](c3ccccc3)OC(=O)[C@H]1[C@@H]2C(=O)N1CCN(c2ncccn2)CC1
i	-5.4	CN(C)C(=O)c1ccc(-c2ccc([C@@H]3[C@H](CO)N4CCCCN(C(=O)C5CCC5)C[C@@H]34)cc2)cc1
i	1.5	O=C(C[n+]1cccc(/C=N/O)c1)NC(=O)Nc1ccccc1
i	-0.7	C=C1[C@@H](OC(C)=O)C=C[C@@]2(C)C=CC(=O)[C@@](C)(OC(C)=O)[C@@H]2[C@@H](OC(C)=O)[C@]2(O)[C@@H](C)C(=O)O[C@H]2[C@H]1Cl
i	1.1	O=C(COc1ccc(Cl)cc1Cl)NCCN1CCCC1

# Following part:
FGF22 binding	MLL AF4-AF9 inh	smiles
i	9.0	COc1ccc(-c2ccc(C(=O)Nc3cccc(N(C)C)c3)c3occc23)c(C)c1
i	9.8	O=C(C1CCC1)N1CCCCN2[C@@H](CO)[C@H](c3ccc(C#CC4CCCC4)cc3)[C@@H]2C1
i	1.0	Cc1ccc(C)c(OCCC(=O)Nc2ccc(S(=O)(=O)N3CCCC3)cc2)c1
i	0.6	COc1ccc(C(=O)c2ccc([N+](=O)[O-])cc2)c(OC)c1OC
i	-0.6	COCCCNC(=O)[C@@]1(CCS(=O)(=O)c2ccccc2)COC(c2ccc(OCCCO)cc2)=N1
i	0.2	Cc1ccc([C@H]2N[C@]3(CCCN(Cc4ccco4)C3=O)[C@H]3C(=O)N(Cc4ccccc4)C(=O)[C@@H]23)cc1
i	7.0	COc1ccc([Si](C)(C)[C@@H]2[C@@H](CCn3cc(CCO)nn3)O[C@]3(C(=O)N(c4ccccc4)c4ccccc43)[C@H]2C)cc1
i	-2.3	[N-]=[N+]=NCc1ccccc1C[C@]1(C(=O)N2CCCCC2)COC(c2ccc(OCCCO)cc2)=N1
i	-0.1	Cn1c(=O)c2c(ncn2Cc2ccc(O)c([N+](=O)[O-])c2)n(C)c1=O
i	7.2	CCc1cnc(Nc2nc(C(N)Cc3ccc(F)cc3)cs2)nc1 (configuration not stated)

# (list continues)
FGF22 binding	MLL AF4-AF9 inh	smiles
i	3.7	COc1ccccc1C#Cc1ccc([C@@H]2[C@@H](CO)N3CCCCN(C(=O)C4CC4)C[C@H]23)cc1
i	-3.1	CC(C)NC(=O)C1(C)CCN1C(=O)C1(c2ccccc2)CCCC1 (configuration not stated)
i	-3.1	COCCOC(=O)N1C(=O)[C@@]2(c3cc(C#CCC(C(=O)OC)C(=O)OC)ccc31)[C@H](c1ccccc1OCCO)N1[C@H](c3ccccc3)[C@H](c3ccccc3)OC(=O)[C@H]1[C@@H]2C(=O)N1CCN(c2ncccn2)CC1
i	-0.7	C[C@H]1CN([C@@H](C)CO)C(=O)c2cc(NC(=O)Nc3ccc(C(F)(F)F)cc3)ccc2O[C@H]1CN(C)C(=O)NC1CCCCC1
i	23	CCOc1ccc(-n2c(C)c3c(C)nnc(C)c3c2C)cc1
i	-3.0	Cc1ccc(S(=O)(=O)Nc2ncnc3sccc23)cc1C
i	-4.3	CC1(C(=O)NS(=O)(=O)c2ccc(Cl)cc2)CCN1C(=O)C1(c2ccc(Cl)cc2)CC1 (configuration not stated)
i	1.1	Cc1cc(C)cc(CC(=O)N2CCC2(C)C(=O)NS(=O)(=O)c2cc(C)ccc2F)c1 (configuration not stated)
i	1.0	C=CCN1C(=O)[C@]2(O[C@H](CCn3cc(CCO)nn3)[C@@H]([Si](C)(C)c3ccc(OC)cc3)[C@@H]2C)c2cc(N3CCOC3=O)ccc21
i	-2.5	COc1ccc(-n2cnc(=S)[nH]c2=S)cc1

# The list goes on:
FGF22 binding	MLL AF4-AF9 inh	smiles
i	-1.3	C=CCNC(=O)[C@@H]1[C@H]2C(=O)O[C@H](c3ccccc3)[C@H](c3ccccc3)N2[C@H](c2ccccc2OCCO)[C@@]12C(=O)N(C(=O)OCCOC)c1ccccc12
i	2.6	C=CCN1C(=O)[C@@]2(O[C@@H](CCn3cc(CCO)nn3)[C@H]([Si](C)(C)c3ccc(OC)cc3)[C@H]2C)c2cc(N3CCOC3=O)ccc21
i	2.4	Nc1ccn(C2OC(CO)C(O)C2F)c(=O)n1 (configuration not stated)
i	0.1	COC(=O)C(CC#Cc1ccc2c(c1)[C@]1(C(=O)N2)[C@H](c2ccccc2OCCO)N2[C@H](c3ccccc3)[C@H](c3ccccc3)OC(=O)[C@H]2[C@@H]1C(=O)N1CCc2cc(OC)c(OC)cc2C1)C(=O)OC
i	-1.0	O=C(NCc1ccccc1)[C@@H]1c2ccccc2C(=O)N(CC23CC4CC(CC(C4)C2)C3)[C@H]1c1ccc(CO)cc1
i	1.7	COC(=O)[C@H](Cc1ccccc1)N1CC2=CCCC=C[C@H]2[C@@H]1[C@@H](O)Cc1ccccc1
i	1.3	CSCCC(C)N1CCC(Oc2ccc(C(=O)NCc3ccccn3)cc2)CC1 (configuration not stated)
i	1.4	Cn1cccc1CN1CCC[C@]2(N[C@H](c3ccc(C(F)(F)F)cc3)[C@@H]3C(=O)N(Cc4ccccc4)C(=O)[C@@H]32)C1=O
i	-2.5	O=C(NCc1ccccc1)c1cc(C2COCCN2C(=O)c2cccs2)on1 (configuration not stated)
i	-3.3	COC(=O)c1ccc([C@@H]2C=C(C(=O)NCc3ccccc3)O[C@H](OCCCCO)C2)cc1

# More entries follow.
FGF22 binding	MLL AF4-AF9 inh	smiles
i	3.2	CCOc1cc(N2CCOCC2)c(OCC)cc1NC(=O)c1cccc(S(=O)(=O)N2CC(C)OC(C)C2)c1 (configuration not stated)
i	4.0	CC(C)(C)NC(=O)C(c1ccc(-c2ccccc2)cc1)N(C[C@H]1CC[C@@H]([C@@H]2CC[C@H](CO)O2)O1)C(=O)c1ccc2ccccc2c1 (some centres not stated)
i	2.2	O=C1O[C@@H](c2ccccc2)[C@@H](c2ccccc2)N2[C@@H](c3ccccc3OCCO)[C@]3(C(=O)Nc4ccccc43)[C@@H](C(=O)O)[C@H]12
i	18	O=S(=O)(N[C@@H]1CCCN(Cc2ccc(OCCO)cc2)C1)c1cc(Cl)ccc1Cl
i	-1.6	COc1ccc(COCC23N=C4SCC(=O)N4[C@H](c4ccccc4O2)[C@H]3CO)cc1
i	0.0	CN(C)S(=O)(=O)c1ccc(Cl)c(NC(=O)COC(=O)CNS(=O)(=O)c2c(F)cccc2F)c1
i	-0.6	CC(C)C[C@@H]1NC(=O)[C@H]2C[C@@H](C(=O)NCCCCCN)[C@@H](c3cccc(OCCO)c3)N2C1=O
i	6.1	CC(C)=C[C@H]1C[C@H](C)[C@H]2CC[C@H](C)c3c(O)c(O[C@H]4OC[C@H](O)[C@@H](O)[C@@H]4O)c(C)c1c32
i	-3.4	COc1ccccc1C#Cc1ccc([C@@H]2[C@H]3CN(C(=O)C4CC4)CCCCN3[C@H]2CO)cc1
i	-8.3	COCCOC(=O)N1C(=O)[C@@]2(c3ccccc31)[C@H](c1ccccc1OCCO)N1[C@H](c3ccccc3)[C@H](c3ccccc3)OC(=O)[C@H]1[C@@H]2C(=O)N1CCCCCCC1

# (list continues)
FGF22 binding	MLL AF4-AF9 inh	smiles
i	-4.6	CN(C)CCCCCCNC(=O)[C@@H]1C[C@@H]2C(=O)NCC(=O)N2[C@@H]1c1cccc(OCCO)c1
i	-1.2	CC(C)(C)c1ccc(N2C(=O)CSC2c2ccccc2)cc1 (configuration not stated)
i	-2.6	CN(Cc1ccc(Cl)cc1Cl)C(=O)c1cccc(S(=O)(=O)NCc2ccccc2)c1
i	5.7	[N-]=[N+]=NCc1ccccc1C[C@]1(C(=O)NCCN2CCOCC2)COC(c2ccc(OCCCO)cc2)=N1
i	-6.1	CC1CCN(C(=O)CCn2c(=O)oc3ccc(Cl)cc32)CC1
i	-5.5	CCOC(=O)C1=CC[C@@H](c2ccc(OC)cc2)[C@@H]1C(=O)c1ccccc1
i	4.5	CC(C)CC#Cc1ccc2c(c1)O[C@H](CN(C)C(=O)c1cccnc1)[C@H](C)CN([C@H](C)CO)S2(=O)=O
i	-17	C=CCNC(=O)[C@@H]1[C@H]2C(=O)O[C@H](c3ccccc3)[C@H](c3ccccc3)N2[C@H](c2ccc(OCCO)cc2)[C@@]12C(=O)N(C(=O)OCCOC)c1ccc(C#Cc3ccc(OC)cc3)cc12
i	-3.2	CC1=C(C(=O)N2CCCCCC2)CC(CC(=O)NCCCN(C)C)C(=O)N1Cc1ccc(F)cc1 (configuration not stated)
i	1.1	O=C(Nc1nnc([C@@H]2C[C@H](O)[C@@H](CO)O2)s1)c1cccc(C(F)(F)F)c1

# Next part
FGF22 binding	MLL AF4-AF9 inh	smiles
i	-0.8	CO[C@@H]1CN(C)C(=O)c2cc(NC(C)=O)ccc2OC[C@@H](C)N(C(=O)CC2CC2)C[C@H]1C
i	0.4	COc1ccc(NC(=O)C2c3ccccc3OCC(=O)N2Cc2ccco2)cc1 (configuration not stated)
i	-1.8	O=C(C1=C[C@H](C2CC2)C[C@H](OCCCCO)O1)N1CCCC1
i	6.0	COc1ccccc1C#Cc1ccc([C@H]2[C@@H](CO)N3CCCCN(C(=O)C4CC4)C[C@H]23)cc1
i	3.3	COCCCNC(=O)[C@@]1(Cc2ccccc2N=[N+]=[N-])N=C(c2ccc(OCCCO)cc2)O[C@H]1c1ccccc1
i	-0.8	Cc1cccc(NC2(C(=O)O)CCCC2)c1
i	-2.2	O=C(N[C@@H](Cc1ccccc1)Cn1cc(CN2C(=O)COC[C@H]2c2ccccc2)nn1)c1ccccc1
i	-2.0	CO[C@H]1CN(C)C(=O)c2cc(NC(=O)C3CC3)ccc2OC[C@H](C)N(C(=O)CN2CCOCC2)C[C@H]1C
i	1.5	CSc1ccccc1NC(=O)C1(C)CCN1C(=O)Cc1ccc(Cl)cc1Cl (configuration not stated)
i	2.3	CCCC(=O)NC1=C(Cl)C(=O)c2ccccc2C1=O

# The results go on.
FGF22 binding	MLL AF4-AF9 inh	smiles
i	-0.4	CC(C)OC(=O)C1OC1(C)c1ccccc1 (configuration not stated)
i	-1.9	CCCC(=O)N1CCC1(C)C(=O)Nc1cccc(OC(C)C)c1 (configuration not stated)
i	2.4	C[C@@H]1CN([C@@H](C)CO)C(=O)c2cccc(NC(=O)Nc3cccc4ccccc34)c2O[C@H]1CN(C)S(=O)(=O)c1ccc(F)cc1
i	2.2	Cc1ccc(S(=O)(=O)N(C)C[C@@H]2Oc3c(NC(=O)Nc4cccc5ccccc45)cccc3C(=O)N([C@H](C)CO)C[C@H]2C)cc1
i	-5.2	O=C(C1CCCC1)N1CCCCN2[C@H](C1)[C@@H](c1ccc(-c3cccc(F)c3)cc1)[C@@H]2CO
i	5.9	COC(=O)[C@]1(CCS(=O)(=O)c2ccccc2)N=C(c2ccc(OCCCO)cc2)O[C@@H]1c1ccccc1
i	4.6	COc1cccc(-c2ccc(CC[C@H]3O[C@H]4CC[C@@H](CO)O[C@H]4C[C@H]3NC(=O)c3cnccn3)cc2)c1
i	-0.9	CC(C)(C)NC(=O)C1c2ccccc2OCC(=O)N1Cc1cccnc1 (configuration not stated)
i	-1.6	COCCCN1C(=O)[C@@]2(Cc3ccccc31)c1ccccc1C(=O)N(C1CCCCC1)[C@H]2c1ccc(CO)cc1
i	-0.6	O=C1O[C@@H](c2ccccc2)[C@@H](c2ccccc2)N2[C@@H](c3ccc(O)cc3)[C@]3(C(=O)Nc4ccc(C#CC5(O)CCCCCC5)cc43)[C@@H](C(=O)N3CCN(c4ncccn4)CC3)[C@H]12

# Following part
FGF22 binding	MLL AF4-AF9 inh	smiles
i	-1.0	COCCNC(=O)C[C@@H]1CC[C@H]2[C@@H](COc3ccc(NC(=O)Nc4ccccc4)cc3C(=O)N2C)O1
i	14	Cc1ccc(S(=O)(=O)N[C@@H]2CCCN(Cc3ccc(OCCO)cc3)C2)cc1
i	-4.3	CN(Cc1cnc2nc(N)nc(N)c2n1)c1ccc(C(=O)NC(CCC(=O)O)C(=O)O)cc1 (configuration not stated)
i	-2.6	COC(=O)c1c2oc(c1C(=O)OC)C(=O)N(C)Cc1cn(nn1)C[C@@H](Cc1ccccc1)NC(=O)N[C@H](CO)CC2
